Screening results: PubChem BioAssay, National Center for Advancing Translational Sciences (NCATS)
TRPML1 blocker: qHTS for Inhibitors of the Human Mucolipin Transient Receptor Potential 1 (TRPML1); Mucolipin-1 (Homo sapiens), Q9GZU1; TRPML1-inducible cells, Ca2+ dye fluorescence, FDSS; stronger effect = lower value; inhibition of EC80 agonist-evoked calcium signal; activity change, negative = inhibition, % (no concentration beside the values); actives 0.02% (n = 390,000); in the data active means activity change below about -50%; inconclusive means about -30% to -50%; inactive means above about -30%;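 further: stimulus is agonist 54-4 at its EC80 concentration; on the % scale 0 is the no-effect control and ±100 the full control effect; compound concentration not given in the record; the text of the record puts the active cut at -80%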
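Tet-induced TRPML1-DL cells loaded with Ca8 no-wash calcium dye were read kinetically on FDSS. Compound addition was followed by EC80 agonist 54-4 (4 uM final); inhibition was read over 110 s.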
ClpP mod: qHTS Assay for Activators of ClpP; purified B. subtilis ClpP, FRET peptide cleavage, 20 min; Potency, µM (doses to about 57.5 µM), without a hit: at the highest dose activity change, negative = active; actives 1.9% (n = 340,000); AID 651965, 2013; active = well fitted falling curve with a large enough effect; inconclusive = small, poorly fitted or top-dose-only effect; inactive = no such curve, though single readings can be large or run the other way; further: potency means the concentration at half of the fitted maximal effect; the source files actives as falling curves though it sought activators and does not explain the sign; nearly all actives have a fitted effect of over 65% in size; many hits overshoot -100%
Target sequence (P80244 whole entry, looked up): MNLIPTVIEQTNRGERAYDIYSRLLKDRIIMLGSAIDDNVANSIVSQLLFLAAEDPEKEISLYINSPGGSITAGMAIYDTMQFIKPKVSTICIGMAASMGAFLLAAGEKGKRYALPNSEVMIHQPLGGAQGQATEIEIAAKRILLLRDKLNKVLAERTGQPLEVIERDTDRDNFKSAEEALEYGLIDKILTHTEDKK
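Buffer: 100 mM Tris/HCl pH8, 100 mM KCl, 0.05% low protease BSA, 2.5% glycerol, 0.01% Tween-20. ClpP 10 microg/mL final; 20 min RT; delta FRET normalized to ADEP and DMSO controls.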
TRPV1 PAM: HTS Assay for Compounds that Act as Potentiators of the Vanilloid Receptor 1 | Transient receptor potential cation channel subfamily V member 1 (Homo sapiens), Q8NER1 | TRPV1-expressing cells, Fluo-8 calcium influx, capsaicin EC20 potentiation; host cell line not named in the record; control for the full effect not named in the record | potentiation, % at 8.33 µM | actives 0.02% (n = 320,000) | AID 540277, 2011; active means potentiation above 80%; inconclusive means 30% to 80%; inactive means below 30%; further: 0% is about no effect
Target sequence (Q8NER1 whole entry, looked up): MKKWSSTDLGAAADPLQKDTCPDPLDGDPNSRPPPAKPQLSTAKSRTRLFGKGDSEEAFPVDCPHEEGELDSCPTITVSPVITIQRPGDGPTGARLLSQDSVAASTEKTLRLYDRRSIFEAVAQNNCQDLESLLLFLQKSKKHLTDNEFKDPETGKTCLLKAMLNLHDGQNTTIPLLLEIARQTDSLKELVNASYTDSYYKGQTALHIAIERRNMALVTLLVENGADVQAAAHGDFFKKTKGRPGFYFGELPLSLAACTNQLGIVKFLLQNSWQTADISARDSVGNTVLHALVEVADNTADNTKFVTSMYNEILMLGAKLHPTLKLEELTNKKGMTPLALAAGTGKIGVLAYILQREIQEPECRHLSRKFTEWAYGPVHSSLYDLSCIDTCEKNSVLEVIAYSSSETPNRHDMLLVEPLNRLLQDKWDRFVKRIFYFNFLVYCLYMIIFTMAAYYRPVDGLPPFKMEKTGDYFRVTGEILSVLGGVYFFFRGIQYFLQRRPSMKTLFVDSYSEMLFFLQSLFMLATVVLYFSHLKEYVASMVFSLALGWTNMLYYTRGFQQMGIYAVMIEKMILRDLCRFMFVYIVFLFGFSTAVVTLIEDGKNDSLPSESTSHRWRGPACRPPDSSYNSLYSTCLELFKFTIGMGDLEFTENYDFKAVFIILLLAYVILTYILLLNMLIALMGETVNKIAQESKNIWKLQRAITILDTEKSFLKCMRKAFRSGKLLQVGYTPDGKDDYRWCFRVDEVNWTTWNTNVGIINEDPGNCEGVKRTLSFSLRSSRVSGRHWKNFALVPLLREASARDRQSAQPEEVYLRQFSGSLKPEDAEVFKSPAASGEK
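TRPV1-expressing cells were cultured overnight at 35.5C and loaded with Fluo-8 calcium dye for 40 to 90 min at room temperature. After a 10 s baseline, compound was added and calcium influx was read kinetically for 3 min (ex 480/em 520 nm).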
TRPML1 agonist: qHTS for Agonists of the Human Mucolipin Transient Receptor Potential 1 (TRPML1); Mucolipin-1 (Homo sapiens), Q9GZU1; TRPML1-expressing cells, Ca2+ dye fluorescence, FDSS; host cell line not named in the record; reference of the full effect not given here; activation, % (no concentration beside the values); actives 0.12% (n = 410,000); AID 624414, 2012; in the data active = activation above about 50%; inconclusive = about 30% to 50%; inactive = below about 30%; further: 0% is about no effect; the text of the record puts the active cut at 80%
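Kinetic FDSS Ca2+ read in Tet-induced TRPML1-DL cells (ABD Ca8 dye plus quencher, 45-90 min RT loading): baseline, then compound, then 110 s agonist window; EC80 agonist 54-4 at 4uM final added afterwards for a 110 s antagonist window.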
Menin-MLL FL inh: qHTS Assay for Inhibitors Targeting the Menin-MLL Interaction in MLL Related Leukemias: Competition With Fluorescein Labeled MLL-derived Peptide | FP activity change, % at 61.4 µM | Fluorescence polarization, fluorescein-MLL peptide displacement from menin | 290,000 tested, under 10 active; inconclusive = falling polarisation curve, or a change in total fluorescence; inactive = total fluorescence flat and polarisation flat or rising; no compound was filed as active; the % refers to the polarisation; negative = inhibition;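 further: % of control where 0% means no effect; inhibitors lower the polarisation; unlabelled MLL peptide was the positive control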
Sfp inh: qHTS Assay for Inhibitors of Bacillus subtilis Sfp phosphopantetheinyl transferase (PPTase); AID 1490, 2009; actives 3.5% (n = 310,000); Biochemical Sfp PPTase activity, qHTS; 4'-phosphopantetheinyl transferase ffp (Bacillus subtilis), Q9F4F7; Potency, µM, inactives show max response, negative = inhibition, usual class: inhibitors; active means well fitted inhibition curve with a large enough effect; inconclusive means small, poorly fitted or top-dose-only effect, or another doubt; inactive means no such curve, though single readings can be large or run the other way;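 further: the enzyme is Sfp with the accession as filed and its product quenches rhodamine fluorescence; potency means the concentration at half of the fitted maximal effect; 0% = enzyme reaction without inhibitor and -100% = no enzyme wells; top concentration of the series not given in the record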
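Compounds were incubated with enzyme (final 15 nM) for 15 min at room temperature before substrate addition started the reaction. Fluorescence at 525 nm excitation, 598 nm emission was recorded immediately and after 30 minutes.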
PINK1 expr mod: A Quantitative High throughput Screen to Identify Chemical Modulators of PINK1 Expression. PINK1 immunofluorescence, high-content cytometry, 24 h. Potency, µM (titrated, usually from 76.6 µM), for the others: at the top dose activation (PINK1 increase), hits mostly activators. actives 0.2% (n = 410,000). AID 624263, 2012; active = well fitted activation curve with a large enough effect; inconclusive = small, poorly fitted or top-dose-only effect; inactive = flat fitted curve, though single readings scatter; cell line not stated here;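 further: potency means the concentration at half of the fitted maximal effect; % of control where 0% means no effect; nearly all actives have a fitted effect of over 65% in size; a mitochondrial uncoupler was the plate control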
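Fluorescence from anti-PINK1 antibody, together with nuclear and cell stains, was scanned on a laser-scanning cytometer. Before staining, stable-line cells were incubated 24 hours with compounds at 5 concentrations; primary antibody 12 h at 10 degrees C.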
The depositor's hits bear a star; ? = inconclusive; · = not tested or not shown; & = joins results of further samples; [ ] = dose if it differs, or a comment.

SMILES	TRPML1 blocker	Sfp inh	Menin-MLL FL inh	TRPML1 agonist	ClpP mod	TRPV1 PAM	PINK1 expr mod
Cc1c2cnn(CC(=O)NCCCN3CC(C)CC(C)C3)c(=O)c2c(C)n1Cc1ccc(Cl)cc1 (configuration not stated)	-6.2	-5.2%	·	-0.2	-28.5%	20.0	-1.4%
CCOc1ccccc1OCC(=O)N/N=C(\C)Cc1ccc(OC)cc1	0.7	9.2%	4.1	-0.1	-19.0%	4.5	29.9%
c1ccc2c(c1)nc1n2CN(Cc2ccc3c(c2)OCO3)CN1	20.8	5.6%	0.8	-0.2	-3.4%	10.5	3.0%[38.3 µM]
COc1ccc(OCC(=O)N2CC3(C)CC2CC(C)(C)C3)cc1 (configuration not stated)	-7.2	4.0%	1.7	0.5	?	-22.3	0.1%
CC(=O)c1c(C)n(-c2ccc(N(C)C)cc2)c2ccc(OCC(N)=O)cc12	7.1	-0.2%	-0.2	-0.7	-6.2%	-5.0	1.7%
CC(C)CCNC(=O)CN(CC1CCCO1)C(=O)CCC(=O)Nc1ccccn1 (configuration not stated)	51.6	4.3%	0.7	-0.4	-3.5%	·	-2.9%
O=C(NC1CC1)c1ccc(Cl)c(S(=O)(=O)N2CCOCC2)c1	-12.6	7.7%	-4.7	-0.6	·	4.6	0.8%
O=C(NCc1ccco1)c1ccccc1SCC(=O)N1CCCC1	28.8	·	·	0.0	-6.1%	-17.1	0.1%
COc1ccc(Nc2nnc(C)c(=O)[nH]2)cc1	0.9	15.5%	5.5	-0.1	-0.7%	7.8	1.1%
CCC(=O)Nc1ccc(C(=O)NNC(=O)c2ccc(C)cc2)cc1	·	11.0%	2.1	·	-0.2%	-5.0	2.0%
COc1ccc2cc(/C=N/NC(=O)c3ccc(CN(c4ccc(C)c(C)c4)S(C)(=O)=O)cc3)c(Cl)nc2c1	-1.5	14.2%	?	2.2	?	8.2	5.0%
O=C(COc1cc(O)c2c(=O)cc(-c3ccccc3)oc2c1)c1cccc([N+](=O)[O-])c1	-1.2	21.5%	17.2	-0.8	-5.6%	-1.4	2.4%

Additional structures follow.
SMILES	TRPML1 blocker	Sfp inh	Menin-MLL FL inh	TRPML1 agonist	ClpP mod	TRPV1 PAM	PINK1 expr mod
CC(=O)NCCc1nc2ccccc2n1Cc1ccccc1	-7.0	-12.4%	-1.5	0.0	-7.7%	-20.9	-0.1%
COCCNC(=O)C1=CC(c2ccc3c(c2)OCO3)=NS(=O)(=O)N1C	6.8	·	·	0.0	-1.8%	·	-1.6%
Cc1nc(SCC(=O)Nc2ccc(OCc3ccccc3)cc2)n[nH]1	0.9	5.1%	1.2	3.5	0.5%	-18.1	0.3%
COc1ccc(C2CC(=O)N(Cc3cccc(F)c3)c3ccccc3S2)cc1 (configuration not stated)	-1.9	·	·	4.8	-2.7%	·	-0.4%
Cc1ccc(CNC(=O)Cc2csc(Nc3nc(=S)[nH]c4ccccc34)n2)cc1	·	?	1.5	·	·	7.5	·
CCC(=O)Nc1ccc(N2CCCCC2)cc1	19.8	-1.5%	1.1	0.1	-3.1%	9.2	0.0%[38.3 µM]
Cc1ccc(S(=O)(=O)NCC23C=CC(O2)C2C(=O)N(c4ccccc4)C(=O)C23)cc1 (configuration not stated)	5.6	28.2µM*	4.3	-0.4	-17.4%	0.6	0.6%
C[C@H]1Cn2cnc(C(=O)N[C@H](C)c3ccccc3)c2C(=O)N1	2.6	·	·	-0.1	1.7%	·	-0.1%
O=C(NNC(=O)c1ccccc1OCc1ccccc1Cl)c1csc(N2CCOCC2)n1	1.5	0.1%	·	-0.1	-3.2%	6.3	2.3%
COc1ccc(N=Nc2c(C)n[nH]c2C)cc1	25.1	7.4%	1.1	1.3	·	5.6	0.4%
CCOC(=O)c1nc(NNC(C)=O)sc1C	5.8	-1.0%	-0.3	-1.4	·	-5.1	1.0%
CC(C)CN1C(=O)C(=O)N(CC(=O)c2ccc[nH]2)C1=O	-7.9	·	·	0.5	-2.1%	8.8	-0.6%

Remaining list, next part
SMILES	TRPML1 blocker	Sfp inh	Menin-MLL FL inh	TRPML1 agonist	ClpP mod	TRPV1 PAM	PINK1 expr mod
Cc1nc(-c2c(C(F)(F)F)noc2-c2ccc(O)cc2O)cs1	-11.9	26.4%	2.0	1.5	-3.6%	8.7	-4.9%[38.3 µM]
CCOc1ccc(C(=O)Nc2cccc3ncccc23)cc1Cl	3.4	-25.8%	0.6	-0.2	0.0%	-7.0	3.6%
Cc1ccc(OCCN2CCCCCC2)c(C)c1	8.0	-1.0%	6.0	0.7	-1.0%	-4.7	-0.5%
NC(=O)C1CCN(CC(=O)N2c3ccccc3CCc3ccccc32)CC1	-10.6	14.5%	0.3	0.3	-1.9%	-2.6	-0.7%
CCOC(=O)c1c(C=O)c(C)n(Cc2ccc(Cl)cc2)c1C	56.1	2.2%	7.5	0.9	-6.1%	2.3	1.8%
CCCCCCCCN1C(=O)[C@H](CC(=O)N2CCC(c3ccccc3)CC2)C[C@@]2(C(=O)OC)CCCCC=C12	·	·	·	1.6	-1.3%	·	9.5%
O=C(CCNC(=O)Cn1cnc2ccccc2c1=O)NCC1CCCO1 (configuration not stated)	15.4	6.9%	0.9	-0.5	0.1%	-24.0	2.3%
Cc1ccccc1N/C(=C(/C(Cl)=C(Cl)Cl)[N+](=O)[O-])n1nnc2ccccc21	37.3	-4.3%	-1.5	-0.7	-2.2%	2.9	2.8%[38.3 µM]
CCCCCCOc1ccc(C(=O)n2cnc(N)n2)cc1	1.4	10.9%	8.1	-0.6	0.1%	11.8	-2.7%[38.3 µM]
O=C(Nc1nc(-c2ccccn2)cs1)c1ccc2c(c1)OCCO2	13.0	13.5%	-6.8	-1.3	-1.1%	-8.5	6.0%
CCCCn1c(N)c(N(C(=O)CSc2nncn2-c2ccccc2)C2CCCC2)c(=O)[nH]c1=O	-10.7	·	·	0.0	-0.8%	·	1.2%
COCCN1C(=NCCCOC(C)C)N[C@@H](c2ccccc2)C(C(=O)OC)=C1C	16.1	24.6%&1.0%	-2.0&-1.0	0.2	-10.6%	7.1&-21.0	-0.9%

Continuation:
SMILES	TRPML1 blocker	Sfp inh	Menin-MLL FL inh	TRPML1 agonist	ClpP mod	TRPV1 PAM	PINK1 expr mod
O=C(CSc1nc2c([nH]c3ccccc32)c(=O)n1-c1cccc(Cl)c1)N1CCCC1	-3.8	·	·	0.9	-2.6%	·	0.8%
O=C(COc1ccccc1)NC(=S)N1CCc2ccccc21	41.7	9.5%	0.9	-0.1	-9.2%	-4.3	1.5%
CNC(=O)CN1C(=O)CSc2ncccc21	11.6	-10.5%	7.1	-0.1	-0.1%	-16.5	11.4%
CCC(=O)N1CCN(c2ccccc2NC(=O)c2cccs2)CC1	2.5	4.5%	·	-0.8	-2.1%	3.7	-0.8%
COc1cccc(NC(=O)CN(C)S(=O)(=O)c2cccs2)c1	6.6	·	·	-0.8	-3.6%	·	0.2%
Cc1ccc(S(=O)(=O)c2nnn3c2nc(NCc2cccs2)c2sccc23)cc1	-5.8	·	·	0.5	?	·	-0.1%
CC(=O)N[C@@H](Cc1c[nH]c2ccccc12)C(=O)OCc1ccc(C#N)cc1	31.4	12.0%	0.1	-0.1	·	28.4	-1.8%
Cc1cc(C)cc(NS(=O)(=O)c2ccc3c(c2)c(=O)n(C)c(=O)n3C)c1	1.1	3.9%	4.5	-0.1	0.6%	7.6	-6.3%[38.3 µM]
Cn1c(=O)[nH]c(=O)c2c1[nH]c(=S)n2CCCc1ccccc1	-8.0	14.1µM*	-6.0	-0.1	·	29.8	1.6%
CCc1c(C)nc(Nc2nc(C)c3cc(OC)ccc3n2)[nH]c1=O	-0.5	14.8%	-0.8	-0.4	-0.5%	-16.3	0.1%
COc1c(Cl)cc(C(=O)Nc2cc(-c3nc4ccccc4[nH]3)ccc2C)cc1Cl	-6.9	·	·	0.8	-21.1%	·	1.7%
CCc1nc2ccc(C(=O)N3CCCCC3)cn2c1N(CCC(C)C)CCN(C)C	·	·	·	0.1	-2.6%	·	0.8%

Structural class, the entries above with an aryl thioether with sulfur outside any ring.
SMILES	TRPML1 blocker	Sfp inh	Menin-MLL FL inh	TRPML1 agonist	ClpP mod	TRPV1 PAM	PINK1 expr mod
O=C(NCc1ccco1)c1ccccc1SCC(=O)N1CCCC1	28.8	·	·	0.0	-6.1%	-17.1	0.1%
Cc1nc(SCC(=O)Nc2ccc(OCc3ccccc3)cc2)n[nH]1	0.9	5.1%	1.2	3.5	0.5%	-18.1	0.3%
CCCCn1c(N)c(N(C(=O)CSc2nncn2-c2ccccc2)C2CCCC2)c(=O)[nH]c1=O	-10.7	·	·	0.0	-0.8%	·	1.2%
O=C(CSc1nc2c([nH]c3ccccc32)c(=O)n1-c1cccc(Cl)c1)N1CCCC1	-3.8	·	·	0.9	-2.6%	·	0.8%

(list continues)
SMILES	TRPML1 blocker	Sfp inh	Menin-MLL FL inh	TRPML1 agonist	ClpP mod	TRPV1 PAM	PINK1 expr mod
O=C(COC(=O)CNC(=O)c1ccc([N+](=O)[O-])o1)Nc1ncc(C(F)(F)F)cc1Cl	6.4	·	·	-0.4	-1.8%	14.3	1.8%
COc1cccc2c(SCC(=O)N/N=C/c3ccccc3)cc(C)nc12	0.7	-14.9%	1.1	0.1	-5.2%	-9.7	1.0%
Cc1oc(-c2ccc(Cl)cc2)nc1CN1CCCC(C(=O)NC2CC2)C1 (configuration not stated)	15.1	9.4%	0.1	1.4	-0.1%	1.1	-0.2%
Cn1[nH]c(=O)c(Cl)c(Cl)c1=O	2.8	8.5%	-2.4	0.2	-1.6%	5.7	-0.5%
Cc1n[nH]c(C)c1S(=O)(=O)N1CCCC(C(=O)Nc2nccs2)C1 (configuration not stated)	-6.9	14.8%	-0.2	0.6	2.1%	-5.8	0.0%
C/C(=N\NC(=O)c1ccccc1)c1cc2cc([N+](=O)[O-])ccc2oc1=O	5.9	13.3%	4.3	-0.5	-2.3%	6.6	-0.1%
